# Screening results: PubChem, ICCB-Longwood Screening Facility, Harvard Medical School
# Sa growth inh: blocks Staphylococcus aureus growth | S. aureus RN4220 growth, OD600, 20 h, 42 °C; hits give low values | relative growth, % (concentration not given with the values) | 170,000 tested, 0.53% active | AID 720641;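 active = growth at 42 °C up to 50% and 20 or more points under that at 30 °C, or under 10% at both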;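 note: 300 nL library stock went into each well; scaled to the means of positive and negative controls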
# HCMV UL50-53 inh: inhibitors of HCMV UL50-UL53 nuclear egress complex interaction; 190,000 tested, 0.15% active; inhibition, % (no concentration beside the values); HTRF UL50-UL53 interaction, normalized percent inhibition;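 active = both replicates at 50% or more, plus weaker picks with an unusually low signal ratio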;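 note: stock transfer was 100 nL into about 20 µL; 0% = negative control wells and 100% = wells with untagged competitor protein; inactives centre near -12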
# GIV-Gai inh: inhibitors of GIV GBA-motif binding to rat Galpha-i3; P08753; Galpha-i3/FITC-GIV peptide fluorescence polarization, 90 min; hits give low values; scaled: aluminum fluoride 0%, vehicle 100%; percent of control (FP), % (test concentration not listed); 210,000 tested, 0.42% active; AID 1224905;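 active = replicate mean at 85% of control or lower, very high polarization wells dropped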;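 note: wells of about 15 µL received 100 nL stock; the first replicate is given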
# Target sequence (P08753 whole entry, looked up): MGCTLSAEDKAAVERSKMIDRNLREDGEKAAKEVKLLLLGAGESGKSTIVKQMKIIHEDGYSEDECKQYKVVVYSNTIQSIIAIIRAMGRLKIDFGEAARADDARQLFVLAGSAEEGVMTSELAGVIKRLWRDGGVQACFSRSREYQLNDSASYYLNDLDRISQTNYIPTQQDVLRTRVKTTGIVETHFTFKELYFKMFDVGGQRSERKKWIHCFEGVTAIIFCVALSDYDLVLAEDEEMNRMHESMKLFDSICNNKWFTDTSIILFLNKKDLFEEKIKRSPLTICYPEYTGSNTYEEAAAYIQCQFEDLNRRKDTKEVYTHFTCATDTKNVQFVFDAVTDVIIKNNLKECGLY
# Sa growth inh second temp: second read-out of Sa growth inh, no call of its own (marks repeat the call); relative growth, %; measured here: growth at 30 °C;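 optical density after 20 h as mean of two plates; 100% = untreated growth and lower means inhibition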
# An asterisk follows results filed as active; / = not tested or not shown; & = joins results of further samples.
# The opening 3 records, to show the layout:
molecule,Sa growth inh,Sa growth inh second temp,HCMV UL50-53 inh,GIV-Gai inh
Cc1cccc(N=Cc2c(O)n(-c3ccccc3)c(=O)c3ccccc23)c1,108.9,89.7,/,98.7
COc1ccc(CC(Cc2ccc3c(c2)OCO3)NC(=O)c2cccc(N(C)C)c2)cc1 (stereo unspecified),/,/,-16.4,103.0
CCc1cccc(C)c1Nc1c(-c2cccs2)nc2nc(C)cc(C)n12,115.2,85.7,-19.5,105.9

# All compounds of this part, from the start:
molecule,Sa growth inh,Sa growth inh second temp,HCMV UL50-53 inh,GIV-Gai inh
Cc1cccc(N=Cc2c(O)n(-c3ccccc3)c(=O)c3ccccc23)c1,108.9,89.7,/,98.7
COc1ccc(CC(Cc2ccc3c(c2)OCO3)NC(=O)c2cccc(N(C)C)c2)cc1 (stereo unspecified),/,/,-16.4,103.0
CCc1cccc(C)c1Nc1c(-c2cccs2)nc2nc(C)cc(C)n12,115.2,85.7,-19.5,105.9
COc1ccc(S(=O)(=O)N2CCCC2C(=O)Nc2nc3c(s2)CCCC3)cc1 (stereo unspecified),103.7,89.7,/,99.0
CC(=O)N1CCc2cc(S(=O)(=O)CCC(=O)N(C)c3ccc(Br)cc3)ccc21,109.7,104.2,-0.6,102.2
Cc1nc2c(C(=O)N(C)Cc3ccccc3)c[nH]n2c(=O)c1Cc1ccc(Cl)cc1,94.6,88.3,2.9,104.7
Cn1c(=O)c(N2CCC(C(=O)NCCN3CCOCC3)CC2)nc2ccccc21,/,/,-39.3,100.6
CSc1nc2ccc(NC(=O)c3ccc(S(=O)(=O)N4CCOCC4)cc3)cc2s1,/,/,-18.0,96.7
COC(=O)c1cc(N2CCCCC2)ccc1NCc1cc2ccc(OC)cc2[nH]c1=O,87.1,86.4,-29.9&-18.1,103.5&108.5
COc1cc(C2CC(=O)NC(SCC(=O)Nc3nccs3)=C2C#N)cc(OC)c1OC (stereo unspecified),98.7,89.8,-34.5,102.0
COc1ccccc1OCCCSc1nc(-c2ccc(C(C)(C)C)cc2)nc2cc(=O)[nH]n12,85.7,84.8,/,101.6
COC(=O)c1cccc(NC(=O)CCCN2C(=O)c3ccccc3C2=O)c1,97.8,68.2,-33.4,103.3
O=S(=O)(c1cc(Cl)ccc1Cl)N(Cc1ccco1)C(F)F,112.7,87.6,-16.6,/
COc1cc([N+](=O)[O-])ccc1-c1ccc(/C=C2/C(C)=C(C#N)c3nc(N)c(C#N)c(C)c32)o1,/,/,-25.9,105.8
COc1ccccc1C1CCN(CCCOc2ccc(Cl)cc2)CC1,80.1,-0.3,-2.0,97.4
CCN(C(=O)c1cc2c(=O)oc3ccc(C)cc3c2s1)c1ccccc1C,108.2,83.8,-10.1,108.7
COC(=O)c1cc(OC(=O)CCN2C(=O)C3CC=CCC3C2=O)cc(C(=O)OC)c1 (stereo unspecified),98.4,94.5,-0.6,/
Cc1cc(C)c(NC(=O)/C=N/OCn2nnc3ccccc3c2=O)c(Cl)c1,106.6,97.3,-25.2,/
CCCC(CCC)C(=O)Nc1cccc(-c2cn3cccnc3n2)c1,119.3,86.1,/,102.6
COc1cc(/C=C2\SC(NC(C)=O)=NC2=O)c(Br)cc1OC(C)=O,/,/,-26.4,109.2
CCC(=O)N1c2ccccc2NC2=C(C(=O)CCC2)C1c1ccccc1 (stereo unspecified),92.1,77.5,-9.1,98.2
Cc1ccc(-n2c(O)c(C=Nc3ncnc4nc[nH]c34)c3ccccc3c2=O)cc1C,76.1,93.0,-33.1,/
O=C(NCc1ccccc1Cl)c1c2c(nc3ccccc13)C(=O)N(C1CCCCC1)C2,74.8,88.8,/,116.0
COc1cc(OC)c(C2C(C#N)=C(N)Oc3n[nH]c(-c4cccc([N+](=O)[O-])c4)c32)cc1OC (stereo unspecified),/,/,-56.6,104.4
Cc1cc(C(=O)Nc2nn(C)c3ccccc23)no1,101.8,87.0,-15.6,99.6
COc1ccc(C2(O)CCN(C(=O)c3ccc4c(c3)OCO4)CC2)cc1,78.2,92.4,-13.6,100.0
CCOc1ccc(NC(=O)CC2CC3CCC2C3)cc1 (stereo unspecified),107.7,83.6,/,105.1
COc1ccc(Oc2cc3c(cc2NS(=O)(=O)c2ccccc2F)n(C)c(=O)c(=O)n3C)cc1,/,/,-2.2,99.8
COc1cccc(-c2ccc(SCc3nc(-c4ccc(OC)c(OC)c4)no3)nn2)c1,/,/,-16.0,106.0
COc1ccccc1NC(=O)C1=C(C)Nc2nc(SC)nn2C1C(C)C (stereo unspecified),91.0,91.0,1.6,96.0
O=C(COc1ccc(Cl)cc1Cl)NN1C(=O)c2cccc3c([N+](=O)[O-])ccc(c23)C1=O,/,/,-25.0,100.2
CCOC(=O)C1=CN(c2ccc(OCC)cc2)C=C(C(=O)OCC)C1c1ccc(OC)c(Br)c1,/,/,-20.5,103.9
CCOC(=O)CN1CC23C=CC(O2)C(C(=O)Nc2ccc(C(C)C)cc2)C3C1=O (stereo unspecified),106.5,86.4,-13.7,107.9
CCN(CC)CCCNC(=O)c1sc2ncnc(N3CCN(c4ccc(OC)cc4)CC3)c2c1C,/,/,-36.5,104.5
CC(C)(C)Sc1nc2ccccc2[nH]c1=S,98.9,34.5,-12.7,107.7
COc1ccc(CNc2nc(-c3cccnc3)nn2S(=O)(=O)c2ccc(Cl)cc2)cc1,/,/,6.9,103.4
Cc1cc(NC2CCCCC2)nc2ccc(N)cc12,94.3,51.1,/,191.7
CC(C)c1ccc(Nc2c(-c3ccccc3O)nc3cnccn23)cc1,100.9,97.5,-34.1,105.1
c1cc(-c2nnc3n2CCC3)ccn1,88.1,88.8,-15.8,/
CCOC(=O)N1CCN(S(=O)(=O)c2ccc(C(=O)Nc3ccc(-c4nc5ccc(C)cc5s4)cc3)cc2)CC1,/,/,-4.8,99.0

# Some entries already given with just Sa growth inh and HCMV UL50-53 inh.
smiles | Sa growth inh | HCMV UL50-53 inh
CC(C)(C)Sc1nc2ccccc2[nH]c1=S | 98.9 | -12.7
COc1ccc(CNc2nc(-c3cccnc3)nn2S(=O)(=O)c2ccc(Cl)cc2)cc1 | / | 6.9
Cc1cc(NC2CCCCC2)nc2ccc(N)cc12 | 94.3 | /

# (continued)
molecule,Sa growth inh,Sa growth inh second temp,HCMV UL50-53 inh,GIV-Gai inh
CCOC(=O)N1CCC(Nc2nc3ccc(Cl)cc3n3cnnc23)CC1,96.5,88.9,/,110.2
Cc1cc(C)nc(Sc2ccc3nnnn3n2)n1,113.6,85.2,-14.1,97.6
COc1ccc(CCNC(=O)c2cnn(-c3cccc(C)c3)c2C2CCNCC2)cc1OC,102.5,94.0,/,100.0
O=c1nc(NCc2ccco2)sc2ncccc12,97.6,83.8,-15.8,109.1
Nc1nnc(SCC(=O)Nc2ccccc2N2CCOCC2)s1,95.8,100.7,13.6,104.8
CCN(CCCNC(=O)c1cc2c(=O)[nH]c3ccccc3c2s1)c1ccccc1,104.3,85.9,-16.9,98.7
Cc1ccccc1-c1noc(-c2cccnc2N(C)Cc2ccccc2)n1,/,/,-25.7,99.5
Cc1ccccc1NC(=O)N1Cc2cccn2-c2ccccc21,/,/,-10.3,100.9
Cc1ncc([N+](=O)[O-])n1CCSc1nc2c(c(=O)n(C)c(=O)n2C)n1Cc1cccc(Cl)c1,/,/,-18.4,96.9
CCOC(=O)N1CCC(NC(=O)c2cccc3c2C(=O)N(CCOC)C3)CC1,96.0,86.6,-12.1,96.7
CCOC(=O)C1=C(C(F)(F)F)Nc2ncnn2C1c1ccc(F)cc1 (stereo unspecified),87.8,95.2,/,98.6
CCCNC(=O)c1ccccc1NC(=O)c1ccccc1NS(C)(=O)=O,98.3,82.1,-8.3,103.6
Cn1nnc2cc(C(=O)Nc3cccnc3)ccc21,100.7,74.5,-10.8,98.7
Cc1oc2cc3oc(=O)c(CC(=O)NCc4ccccc4)c(C)c3cc2c1C,99.0,91.3,-37.1,103.1
CC(CCc1ccccc1)Nc1cc(-c2ccccc2)nc2nc(-c3cccnc3)nn12 (stereo unspecified),/,/,-4.6,109.9
CC(C)CC1(C)N=C(c2ccccc2)C(=S)N1 (stereo unspecified),103.8,76.3,/,100.3
Cc1ccc(NC(=O)Cn2c(=O)n(-c3ccc(CC(=O)NCC4CCCO4)cc3)c(=O)c3ccccc32)cc1 (stereo unspecified),84.7,86.7,-19.3,101.3
CC12CCC(=O)N1c1ccccc1C(=O)N2c1ccc(F)cc1 (stereo unspecified),98.0,95.7,-9.0,/
O=C(NC1CCCC1)C(c1ccc(Cl)cc1)N1CCCCC1 (stereo unspecified),94.8,97.0,-12.7,108.1
Cc1ccc(-c2ccc(N3CCC(C(=O)N4CCC(C)CC4)CC3)nn2)cc1,/,/,-39.7,97.9
CC(=O)NCc1nc(-c2cc3c(C)nn(-c4ccccc4)c3s2)no1,/,/,-20.2,101.9
c1ccc(C(c2cccs2)c2c[nH]c3ccccc23)cc1 (stereo unspecified),104.7,101.5,/,108.1
CCOc1ccc(-c2cc(C)n3nc(C(=O)Nc4ccc(Br)cc4)cc3n2)cc1,/,/,-19.9,103.7
COc1ccc(NC(=O)CCS(=O)(=O)c2nc(-c3cccs3)cc(C(F)(F)F)n2)cc1,88.0,78.2,-39.7,108.8
COc1cccc(-c2nc(CS(=O)(=O)CC(=O)NCc3ccc(C)cc3)c(C)o2)c1,102.1,90.0,-13.5,105.7
O=C(CCCc1nc2ccccc2c(=O)[nH]1)Nc1ccc(F)c(Cl)c1,97.0,96.7,-3.9,/
CCc1nc2ccc(C(=O)NCc3cccc(Br)c3)cc2nc1CC,87.3,89.0,/,100.6
CCc1nc2ccccc2c(NC(=O)CN(CC)CC)c1C,63.2,104.9,-11.1,113.9
CCC(Sc1nc2nccnc2c(=O)n1Cc1ccc(OC)cc1)C(=O)NC1CCCCC1 (stereo unspecified),107.0,96.6,-20.2,104.2
CC(C)c1ccc(C(=O)CCN(C)C)cc1,69.5,81.2,-12.3,/
CC(=O)Nc1cccc(C(=O)Oc2cccc(C)c2)c1O,74.8,92.4,13.6,/
CN(C)S(=O)(=O)N=C1C=CC(=NS(=O)(=O)N(C)C)C=C1,120.4,91.7,-26.4,/
COc1ccccc1NC(=O)c1sc2nc(-c3cc4ccccc4oc3=O)[nH]c(=O)c2c1C,92.3,97.2,12.5,109.6
COc1ccc(OCCNC(=O)c2ccco2)cc1,102.8,85.1,2.8,109.6
Cc1ccc(N2CCN(c3nc4ccccc4n4nnnc34)CC2)c(C)c1,106.2,89.0,-26.9,101.1
O=C(c1cccc2c1NC(c1cccc([N+](=O)[O-])c1)C1CC=CC21)N1CCCC1 (stereo unspecified),/,/,-33.2,103.8
NS(=O)(=O)c1ccc(N2N=C(c3ccccc3)CC2c2ccccc2)cc1 (stereo unspecified),/,/,-8.8,99.7
COc1ccc(OC)c(S(=O)(=O)NCCc2sc(-c3ccc(C)cc3)nc2C)c1,103.6,96.8,/,106.0
CC(N=C1SCCN1C(=O)/C=C/c1ccco1)c1ccccc1 (stereo unspecified),96.5,96.9,-13.6,/
O=C(CN1C(=O)COc2ccccc21)NCc1ccccn1,121.5,85.3,/,104.0
CNC(=O)c1cccc2cccc(Sc3ccccc3C(=O)O)c12,89.4,83.0,-19.4,98.7
CCOC(=O)c1oc2ccccc2c1COC(=O)c1cccc(-n2cnnn2)c1,112.7,93.1,-21.8,/
CCC(C)(C)NC(=O)c1cccc(S(=O)(=O)N2CCN(c3ccc(F)cc3)CC2)c1,93.8,94.6,-26.0,/
COc1ccc(S(=O)(=O)NCCc2sc(C)nc2C)cc1F,116.8,84.2,/,103.7
Cn1ccc(C(=O)OCC(=O)Nc2ccc(S(N)(=O)=O)cc2)n1,110.7,95.1,-3.9,100.6
CCc1ccc(-c2n[nH]c(=O)c3c2CCCC3)cc1S(=O)(=O)N(CC)Cc1ccccc1,/,/,-9.6,100.0
O=C(CSc1nnc(-c2ccc(Cl)cc2)o1)c1ccc([N+](=O)[O-])cc1,89.0,77.6,-27.2,105.7
CCCc1cc(-c2ccc(O)c(OCC)c2)c(C#N)c(N)n1,86.4,74.0,-20.1,99.8
CCn1c(SC(C)C(=O)NC(N)=O)nc2ccccc21 (stereo unspecified),93.7,85.4,-0.5,/
Oc1cccc(-c2nc3ncccn3c2Nc2cccc(C(F)(F)F)c2)c1,91.3,69.2,-16.1,106.2
COc1ccc(NC(=O)CSCc2ccc(C)cc2)cc1,108.2,79.0,-7.5,98.1
Nc1cc(-c2ccc(Cl)cc2)nn1S(=O)(=O)c1ccc(F)c(F)c1,116.2,105.0,3.0,106.2
CCc1ccc(Nc2nc(-c3ccccc3)cc(=O)[nH]2)cc1,83.0,79.3,-23.6,103.4
CS(=O)(=O)N1CCCC(C(=O)NCCCN2CCCCC2)C1 (stereo unspecified),89.8,82.5,5.0,100.3
